High-throughput results (PubChem)
AID504770 – growth inhibitors of E. coli YBA685 in a screen for V. cholerae RctB (chromosome II replication) inhibitors; E. coli YBA685 rctB-dependent plasmid, OD600 growth, 3 h; stronger effect = lower value; z-score (concentration not given with the values); 130,000 tested, 0.27% active; AID 504770;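 active means z-score under -2 on both plates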;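 further: wells of about 30 µL received 100 nL stock; score is relative to mean and SD of the test wells; the first replicate is given; strong numbers were not always called active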
Ba CapD inh – CapD enzyme inhibition | 140,000 tested, 0.23% active | purified CapD enzyme, fluorescence intensity read-out; stronger effect = lower value; some hits fall short of the stated cut | z-score (concentration not given with the values);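 active means z-score under -4 in either of two replicates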;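 further: stock transfer was 100 nL into about 40 µL; score is relative to mean and spread of the plate; one replicate is shown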
* = called active by the depositor; i = inactive; · = not tested or not shown. Compounds as they come (roughly 0.41% active in at least one column).

entry	canonical_smiles	AID504770	Ba CapD inh
1	O=C(CS(=O)(=O)c1cn(CC(=O)N2CCCC2)c2ccccc12)Nc1ccccc1	0	·
2	CCCc1cc(=O)n2[nH]c(NC(=O)CC)nc2n1	-0.35	-0.045
3	COc1ccc(C2c3ccsc3CCN2C(C)=O)cc1 (centres undefined)	-0.25	32
4	FC(F)(F)c1ccc(-c2[nH]ncc2-c2cnccn2)cc1	·	0.49
5	OCc1cc(-c2ccccc2Cl)no1	-0.7	-0.69
6	Cc1ccc(N2C(=O)SC(Nc3ccccc3)C2=O)cc1 (centres undefined)	0.25	·
7	Cn1c(=NC(=O)c2c(F)cccc2F)sc2cc(S(C)(=O)=O)ccc21	-0.5	0.49
8	O=C1C(c2ccccc2)Nc2c3ccccc3nc(=S)n21 (centres undefined)	0.15	0.23
9	c1ccc(C2Nc3cccc4cccc(c34)N2)cc1	·	22
10	C[C@H](CCC(=O)O)[C@H]1CCC2C3C(=O)CC4CC(=O)CC[C@]4(C)C3CC(=O)[C@@]21C (some centres undefined)	0.15	-0.36
11	NC1=NC(=O)C(CC(=O)Nc2ccc(N3CCCCC3)cc2)S1 (centres undefined)	-0.45	-0.55
12	COC(CN(C)C(=O)c1cn(C)c2ccc(S(=O)(=O)N3CCOCC3)cc2c1=O)OC	-0.2	1
13	O=c1[nH]c2ncccc2nc1-c1ccccc1	0.05	12
14	O=C(O)c1ccc(F)c2ccccc12	-0.65	0.055
15	Cc1ccccc1S(=O)(=O)Nc1ccccc1	0	0.79
16	Cc1cccc(Nc2cc(N3CCCCC3)ncn2)c1	-0.7	0.24
17	Cc1ccc(N(CC(O)CN(Cc2ccccc2)Cc2ccccc2)S(=O)(=O)c2ccc([N+](=O)[O-])cc2)cc1 (centres undefined)	·	-0.39
18	Cc1ccc2oc(-c3ccccc3)cc(=NCCN(C)C)c2c1	-0.3	-0.59
19	CC(C)n1c(SCC(=O)c2ccccc2)nc2cc(Cl)ccc21	-0.05	0.27
20	COC(=O)c1ccccc1Oc1c(F)c(F)nc(N2CCCCC2)c1F	0.15	0.81

The list goes on, starting with the last 2 of the part before.
entry	canonical_smiles	AID504770	Ba CapD inh
19	CC(C)n1c(SCC(=O)c2ccccc2)nc2cc(Cl)ccc21	-0.05	0.27
20	COC(=O)c1ccccc1Oc1c(F)c(F)nc(N2CCCCC2)c1F	0.15	0.81
21	CCc1nn(CCCC(=O)N2CCN(c3cccc(C)c3C)CC2)c(=O)c2cc3occc3n12	-0.85	-0.71
22	Cc1nn(C)c(C)c1/C=C/C(=O)N1CCN(Cc2cccc(Cl)c2)CC1	0.65	·
23	COC(=O)c1ccccc1SN	-0.6	·
24	CCN(CC)S(=O)(=O)c1ccc(C(=O)Nc2nnc(-c3ccc(S(C)(=O)=O)cc3)o2)cc1	-0.55	·
25	CCOC(=O)c1c(NC(=O)c2ccc(Cl)s2)sc2c1CCN(C(C)=O)C2	-0.1	·
26	Nn1c(=S)[nH]c2cc(C(=O)O)ccc2c1=O	0.45	0.32
27	COC(=O)c1cnn(-c2ccccc2)c1C(OC)OC	-0.5	9.7
28	CCOC(=O)C1=C(C)N=c2s/c(=C\c3ccc(OC)c(O)c3)c(=O)n2C1c1ccc(OCC)c(OCC)c1 (centres undefined)	·	-0.29
29	CCCCNc1nc2ccccc2n1Cc1cccc(OC)c1	0.5	·
30	Cc1cc(C)c(C(=O)CSc2nnc(C)n2N)cc1C	0.35	·

Arranged by count of non-hydrogen atoms (smallest number first): 7 of the compounds above
entry	canonical_smiles	AID504770	Ba CapD inh
23	COC(=O)c1ccccc1SN	-0.6	·
26	Nn1c(=S)[nH]c2cc(C(=O)O)ccc2c1=O	0.45	0.32
30	Cc1cc(C)c(C(=O)CSc2nnc(C)n2N)cc1C	0.35	·
29	CCCCNc1nc2ccccc2n1Cc1cccc(OC)c1	0.5	·
22	Cc1nn(C)c(C)c1/C=C/C(=O)N1CCN(Cc2cccc(Cl)c2)CC1	0.65	·
21	CCc1nn(CCCC(=O)N2CCN(c3cccc(C)c3C)CC2)c(=O)c2cc3occc3n12	-0.85	-0.71
28	CCOC(=O)C1=C(C)N=c2s/c(=C\c3ccc(OC)c(O)c3)c(=O)n2C1c1ccc(OCC)c(OCC)c1 (centres undefined)	·	-0.29

The results go on.
entry	canonical_smiles	AID504770	Ba CapD inh
31	O=C(CN1C(=O)C2C3C=CC(C3)C2C1=O)N1CCN(Cc2ccccc2)CC1 (centres undefined)	0.4	-1.6
32	Cc1cc(C)nc(NC(=O)C(Cc2ccccc2)N2C(=O)C3CCCCC3C2=O)n1 (centres undefined)	·	-0.56
33	O=C(NC1CCCCC1NC(=O)c1cccs1)c1cccs1 (centres undefined)	-1.2	-0.89
34	Cc1ccc(S(=O)(=O)c2nc(S(C)(=O)=O)sc2N2CCCC2)cc1	-0.15	1.6
35	CC(=O)N1CCN(c2ccc(N)cc2)CC1	1.9	0.13
36	CCN1CCc2c(OC(C)C)cccc2C1=O	0.05	1.2
37	O=C(CN1C(=O)CCC1=O)Nc1nnc(-c2cccnc2)o1	-0.6	·
38	COc1cc(/C=C2/SC(=O)NC2=O)cc(Br)c1O	0.1	-1.6
39	CCC(c1nnc(SCC(=O)NCCc2ccc(Cl)cc2Cl)o1)N(C)C (centres undefined)	-0.3	·
40	CC(C)[C@H](NC(=O)C1CCCCC1)c1nc2ccccc2[nH]1	0	·
41	CCOc1ccc(C(=O)NCC(=O)O)cc1	2.8	-0.85
42	CC(C)N(Cc1ccccc1)C(=O)c1ccccc1C(=O)O	-3.2	-0.06
43	Cc1ccc(NC(=O)C2(N3C(=O)CC3c3ccco3)CCCCC2)cc1 (centres undefined)	0.3	0.32
44	COCc1cc(C)nc2sc3c(c12)NC1(CCCCC1)NC3=O	0.15	0.3
45	CC1=C(C(=O)Nc2cccc(C)n2)C(c2cccc(Oc3ccccc3)c2)C2=C(CCCC2=O)N1 (centres undefined)	·	4.5
46	O=c1[nH]c(O)c(C=Nc2ccccc2)c(=O)[nH]1	-0.9	-0.31
47	COc1ccc(C2Nn3c(C)nnc3SC2C(=O)Nc2ccccc2C(F)(F)F)cc1 (centres undefined)	-0.2	0.23
48	CC(=O)N1CCN(C2=NC(=O)/C(=C\c3ccccc3OC(C)C)S2)CC1	·	-0.56
49	Oc1cccc(Nc2nc(NCC3CCCO3)c3ccccc3n2)c1 (centres undefined)	1.9	32
50	CCOC(=O)Cn1nc(C)c2ccccc2c1=O	·	-0.09
51	CN(C)N1C(=O)c2cccc3cccc(c23)C1=O	-0.35	0.99
52	CCCc1nnc(SCC(=O)N(CC)CC)n1C	-0.35	·
53	O=c1sc2ccccc2n1Cc1nnc(SCc2ccccn2)n1-c1cccc(Cl)c1	-0.45	0.01
54	Cc1ccc2occ(CC(=O)Nc3cccc(C(F)(F)F)c3)c2c1	-0.1	0.04
55	CN(C(=O)c1cc2cccnc2n(C)c1=O)c1ccccc1	-0.75	·
56	CC1(C(=O)NC2CCCC2)CCC(=O)N1CCc1ccc(Cl)cc1 (centres undefined)	-0.2	0.11
57	O=C(/C=C\c1ccc2c(c1)OCO2)NC1(C(=O)Nc2ccc3c(c2)OCO3)CCCCC1	-0.9	3
58	COc1ccccc1CNC(=O)[C@H](C)N1C(=O)C2CC=CCC2C1=O (some centres undefined)	-1.3	·
59	FC(F)(F)c1cccc(N=Cc2ccc(Cl)cc2)c1	·	0.62
60	O=C1C(C=NCCN2CCOCC2)=C(O)c2ccccc21	0.5	3.1
61	O=C(NC1CC1)C(F)(F)C1(F)OC(F)(F)C(F)(F)C1(F)F (centres undefined)	1	·
62	COc1ccc(-c2c(C)nn3c(N4CCC(C(=O)NCC(OC)OC)CC4)cc(C)nc23)cc1OC	-0.45	-0.26
63	CC1CCCCC1NC(=O)c1ccc2c(=O)n(Cc3ccc4c(c3)OCO4)c(=O)[nH]c2c1 (centres undefined)	-0.7	81
64	Cc1csc(=O)n1CCC(=O)O	0.2	·
65	CCN1C(=O)c2cccc3c(NC(=S)NC(=O)c4ccccc4)ccc1c23	0.85	0.51
66	Cc1cc(C)c(C(=O)O)c(CC(C)(C)C(=O)N2CCN(CCCC(c3ccc(F)cc3)c3ccc(F)cc3)CC2)c1	·	0.6
67	CCOC(OCC)c1ccc(C=C(C#N)C#N)cc1	0.25	0.4
68	COC(=O)Cc1cc(=O)[nH]c(/N=C(\N)Nc2ccc(C(C)C)cc2)n1	-0.35	-0.28
69	CN(Cc1ccccc1)C(=O)Cc1ccc(S(C)(=O)=O)cc1	·	-0.47
70	O=C(O)c1cscc1S(=O)(=O)c1ccc(Cl)cc1	-0.75	-0.39
71	COC(=O)c1ccc(Cn2cc(C(F)(F)F)cc(Cl)c2=O)o1	1.9	·
72	CCOC(=O)CC(N)c1ccc2c(c1)OCO2 (centres undefined)	-0.7	·
73	O=C(Cc1csc(-c2cnccn2)n1)N1CCN(C/C=C/c2ccccc2)CC1	·	18
74	O=C1CC(NS(=O)(=O)c2ccccc2)CN1c1ccc2c(c1)OCCO2 (centres undefined)	-1.5	·
75	COc1ccc(NC(=S)NCCSc2ccc(Cl)cc2)cc1	·	-0.16
76	CCCn1c(SC/C(O)=C(\C#N)c2nc3ccccc3[nH]2)n[nH]c1=O	0.25	·
77	O=C(CSc1ncn[nH]1)Nc1ccc(F)cc1	-0.35	·
78	OCCN1CCN(c2ncc(Cl)cc2C(F)(F)F)CC1	·	0.42
79	CC(C)(C)c1ccc(C(=O)NC2CCNCC2)cc1	-0.6	·
80	N#CC1=C(N)Oc2c(sc3ccccc23)C1c1ccccc1OC(=O)c1ccccc1Cl (centres undefined)	0.5	0.24

Carrying on:
entry	canonical_smiles	AID504770	Ba CapD inh
81	N#CCc1ccc(C(F)(F)F)cc1	-1	·
82	O=S(=O)(NCCN1CCOCC1)c1ccc(I)cc1	-0.7	·
83	Cc1cc(C(=O)CSc2nnc(C(F)(F)F)n2N)c(C)n1CC1CCCO1 (centres undefined)	-0.15	·
84	COc1cc(C2N(C(C)=O)CCN2S(=O)(=O)c2ccc(C)cc2)ccc1O (centres undefined)	1.8	-0.35
85	N#CC1=Cc2ccccc2OC1	-0.8	·
86	Cn1c(=O)[nH]c(=O)c2ccc(-c3ccccc3)nc21	0	·
87	Cc1cc2nnc(SCC(=O)Nc3sc4c(c3C#N)CCC(C)C4)n2c2ccccc12 (centres undefined)	·	-0.39
88	Oc1cccc(CN2CCN(Cc3ccccc3)CC2)c1	0.1	0.12
89	CCC(C)Sc1nnc(NC(=O)c2ccccc2C(F)(F)F)s1 (centres undefined)	0	-0.28
90	COc1ccc2oc(-c3ccccc3)c(C(=O)N(C)C)c2c1	0.6	i
91	Cc1cccc(-n2ncc(C(=O)N3CCCC3)c2C2CCNCC2)c1	-1.1	-0.87
92	CCc1nc2nc3ccccc3nc2n1-c1ccc(N2CCOCC2)cc1	-0.45	·
93	Nc1cc(S(=O)(=O)C(F)(F)F)ccc1Cl	-0.5	1.1
94	CS(=O)(=O)c1ccc(S(=O)(=O)NCCCO)cc1	·	0.6
95	O=C(O)c1cccc(NC(=O)c2cc3ccccc3oc2=O)c1	-0.85	-0.3
96	CC1(C)CC(NC(=O)c2ccn[nH]2)CC(C)(C)N1	0	0.28
97	CCOC(=O)c1sc2nc(CC(=O)OC)nc(NCCN3CCOCC3)c2c1C	·	61
98	Cc1ccc(NC(=O)CCn2ccnc2C)cc1Cl	-0.9	0.38
99	Cn1cccc1C(=O)NC(=O)CSc1nnc(-c2cccnc2)o1	-1.1	·
100	N#CC1=C(N)Oc2n[nH]c(-c3ccc(F)cc3)c2C1c1cccc(OC(=O)N2CCOCC2)c1 (centres undefined)	·	-0.22
101	Nc1ccc2[nH]c(=O)nc(-c3ccccc3)c2c1	-2.4	·
102	COc1ccc2c(c1)CCCC21SC(NC(C)=O)=NN1C(C)=O (centres undefined)	-0.3	·
103	CCC(Sc1nc(C)c(Cc2ccccc2)c(=O)[nH]1)C(=O)O (centres undefined)	0	0.46
104	CCCOC(=O)CCc1n[nH]c(=O)[nH]c1=O	-1.1	-0.075
105	O=C1OC(c2ccccc2)=N/C1=C\c1ccc(/C=C2\N=C(c3ccccc3)OC2=O)cc1	·	-0.99
106	CC(C)(O)C(=O)OCC(=O)c1ccc(Cl)cc1	-0.25	0.3
107	CCCCN(CC)C(=O)c1cc2cc3cc(OC)ccc3nc2s1	0.5	60
108	COc1ccccc1CN1CCCC1	1.9	-0.32
109	Cc1ccc(NC(=O)COC(=O)CN2CCCCCC2=O)cc1C	0	·
110	COC(=O)C1=C(C)NC2=C(C(=O)CC(c3ccccc3)C2)C1c1ccc(N(C)C)cc1 (centres undefined)	1.5	1.1
111	S=c1[nH]nc(Nc2ccc(I)cc2)s1	1.9	-2.3
112	NC(N)=NC(N)=Nc1ccc(F)cc1F	·	0.45
113	COc1cc(C2C(C#N)=C(N)Oc3n[nH]c(-c4ccc(Br)cc4)c32)ccc1OC(=O)N1CCOCC1 (centres undefined)	·	0.29
114	CN(C)C(=O)c1cccc2c1NC(c1ccc([N+](=O)[O-])cc1)C1CC=CC21 (centres undefined)	·	-0.43
115	C/C(=N\NC(N)=O)c1cccs1	·	-0.98
116	O=c1c(C=NCc2ccc3c(c2)OCO3)c(O)n(C2CCCCC2)c(=O)n1C1CCCCC1	0.1	0.21
117	CCOc1ccc(Cl)cc1S(=O)(=O)N1CCC(C(=O)NC(C)COC)CC1 (centres undefined)	0.35	·
118	CSc1cccc(NC(=O)c2cnn3ccccc23)c1	-0.45	21
